Yeast UUG start = modulators of start codon recognition fidelity in yeast. AID 602363. 0.13% of 350,000 active. activity score, % at 18.7 µM. S. cerevisiae UUG-firefly luciferase reporter, luminescence/redox ratio;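 active = replicate mean at a twofold rise or more, about +100% in these data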;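 note: firefly luciferase made from a UUG start codon reports start codon fidelity; reporter light over untreated wells divided by growth signal over untreated wells; some hits fall short of that in this replicate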
HIV Env fusion = inhibitors of HIV Env-mediated cell fusion. HeLa-JRFL Env/CEM21 cell fusion, luciferase. inhibition, % at 12.3 µM. 1.1% of 360,000 active. AID 651610;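 active = mean replicate inhibition score of at least 50 and every replicate individually at or above 50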;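 note: 0% = plate neutral controls and 100% = maraviroc near 300 nM; one replicate is shown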
* marks the source's active call; other numbers are inactive results; & = joins results of further samples; [ ] = another dose, or the depositor's remark.

Yeast UUG start,HIV Env fusion,Molecule
28.4,12.7[16.7 µM],COCC(=O)N(C)C[C@@H]1Oc2cc(C3=CCCCC3)ccc2S(=O)(=O)N([C@@H](C)CO)C[C@H]1C
-9.7,-4.1,O=[N+]([O-])c1ccc(NN=CCCc2ccccc2)nc1
9.0,-8.3[16.7 µM],C[C@@H]1CN([C@H](C)CO)C(=O)c2cccc(NC(=O)Nc3ccccc3)c2O[C@@H]1CN(C)S(=O)(=O)c1ccccc1
-14.8,3.7[16.7 µM],COc1cccc(NC(=O)N[C@H]2CC[C@@H](CC(=O)NCc3ccccn3)O[C@@H]2CO)c1
-3.8,6.8[16.7 µM],Cc1ccc(S(=O)(=O)NCC[C@H]2CC[C@H](NC(=O)c3cccc(F)c3)[C@H](CO)O2)cc1
4.6,-2.6[16.7 µM],CCCN1C[C@@H](C)[C@H](OC)CN(C)C(=O)c2cc(NC(=O)c3ccccc3)ccc2OC[C@@H]1C
-6.4,-0.3[16.7 µM],COc1ccc(CNC(=O)C[C@@H]2CC[C@H](NC(=O)CN(C)C)[C@H](CO)O2)cc1
-8.1,7.4[16.7 µM],C[C@H]1CN([C@@H](C)CO)C(=O)c2cc(/C=C/c3ccccc3)cnc2O[C@@H]1CN(C)Cc1ccncc1
-5.0,8.1[16.7 µM],Cc1ccc(S(=O)(=O)N(C)C[C@@H]2Oc3ccc(NC(=O)CCCCCC(=O)Nc4ccccc4N)cc3CC(=O)N([C@@H](C)CO)C[C@H]2C)cc1
-0.7,-2.4[16.7 µM],C[C@@H]1CN([C@@H](C)CO)S(=O)(=O)c2ccc(-c3cncnc3)cc2O[C@@H]1CN(C)C(=O)Cc1ccncc1
5.9,-2.6[16.7 µM],CC(C)CC#Cc1cnc2c(c1)C(=O)N([C@H](C)CO)C[C@H](C)[C@H](CN(C)C(=O)NC1CCCC1)O2
6.6,-8.1[16.7 µM],O=C(C[C@@H]1C[C@H]2c3cc(NC(=O)CC4CC4)ccc3O[C@H]2[C@H](CO)O1)NCc1cc(F)ccc1F
-3.0,15.8[16.7 µM],O=C(N[C@H]1CC[C@H](CCn2cc(-c3cccnc3)nn2)O[C@@H]1CO)c1ccccc1F
-6.9,-20.1[16.7 µM],C[C@@H]1CCCCO[C@@H](CN(C)S(=O)(=O)c2ccccc2)[C@@H](C)CN([C@@H](C)CO)C(=O)c2cc(NS(=O)(=O)c3cccs3)ccc2O1
9.6,15.9[16.7 µM],COc1ccccc1C#Cc1cnc2c(c1)C(=O)N([C@H](C)CO)C[C@H](C)[C@H](CN(C)C(=O)CC1CC1)O2
10.0,-15.6[16.7 µM],C[C@@H]1CCCCO[C@@H](CN(C)Cc2ccccc2)[C@H](C)CN([C@H](C)CO)C(=O)c2cc(NC(=O)Cc3ccccc3)ccc2O1
-19.9,5.0[16.7 µM],CN1C(=O)c2cc(NC(=O)c3cccs3)ccc2OC[C@@H]2O[C@@H](CC(=O)NCCN3CCCCC3)CC[C@H]21
5.1,27.0[16.7 µM],Cc1cc(C(=O)Nc2cccc3c2O[C@@H](CN(C)Cc2ccc(Cl)c(Cl)c2)[C@H](C)CN([C@H](C)CO)C3=O)n(C)n1
10.9,11.2[16.7 µM],C[C@H](CO)N1C[C@H](C)[C@H](CN(C)S(=O)(=O)c2cn(C)cn2)Oc2c(NC(=O)c3ccc(-c4nccs4)cc3)cccc2C1=O
-0.5,-16.9[16.7 µM],CC(C)NC(=O)N(C)C[C@@H]1OCCCC[C@H](C)Oc2ccc(NC(=O)c3ccncc3)cc2C(=O)N([C@H](C)CO)C[C@@H]1C
-14.4,-5.1[16.7 µM],COc1ccc(S(=O)(=O)N(C)C[C@@H]2OCCCC[C@@H](C)Oc3ccc(NC(=O)c4ccccc4)cc3C(=O)N([C@@H](C)CO)C[C@@H]2C)cc1
3.5,-8.7[16.7 µM],Cc1noc(C)c1NC(=O)N1C[C@H](O)COC[C@H]2O[C@@H](CC(=O)NCC3CC3)CC[C@@H]21
-7.2&-8.5,-4.6&-29.7[16.7 µM],CNC(=O)C[C@@H]1CC[C@H]2[C@H](COc3ccc(NC(=O)c4cccc(F)c4)cc3C(=O)N2C)O1
10.2,7.2[16.7 µM],COc1ccc(-c2cnc3c(c2)C(=O)N([C@H](C)CO)C[C@@H](C)[C@@H](CN(C)C(=O)Cc2ccccc2)O3)cc1
-0.8,0.4[16.7 µM],Cc1noc(C)c1NC(=O)N(C)C[C@H]1Oc2c(NC(=O)C3CC3)cccc2C(=O)N([C@H](C)CO)C[C@H]1C
20.5&0.4,9.0&-13.5[16.7 µM],C[C@H](CO)N1C[C@H](C)[C@H](CN(C)S(C)(=O)=O)Oc2ncc(C#CCN(C)C)cc2C1=O
2.5,-5.4[16.7 µM],CCC(=O)Nc1ccc2c(c1)C(=O)N(C)[C@@H]1CC[C@H](CC(=O)NCCCN(C)C)O[C@@H]1CO2
12.1,-12.5[16.7 µM],CCCC#Cc1ccc2c(c1)O[C@H](CN(C)CC1CC1)[C@H](C)CN([C@@H](C)CO)S2(=O)=O
2.4,-16.6[16.7 µM],COc1ccccc1S(=O)(=O)N[C@@H]1CC[C@H](CC(=O)N2CCOCC2)O[C@@H]1CO
-14.4,-33.3[16.7 µM],C[C@@H]1CN([C@@H](C)CO)C(=O)Cc2cc(NC(=O)C3CC3)ccc2O[C@@H]1CN(C)Cc1ccncc1
-8.0,-5.5[16.7 µM],CNC[C@@H]1Oc2ccc(NC(=O)c3ccncc3)cc2C(=O)N([C@H](C)CO)C[C@H]1C
-4.9,21.9[16.7 µM],O=C(C[C@H]1C[C@H]2c3cc(NC(=O)NC4CCCCC4)ccc3O[C@H]2[C@@H](CO)O1)NCC(F)(F)F
-3.9,-11.0[16.7 µM],C[C@H](CO)N1C[C@H](C)[C@H](CN(C)C(=O)C2CCC2)Oc2ncc(C3=CCCC3)cc2C1=O
8.8,65.2*[16.7 µM],C[C@@H]1CN([C@H](C)CO)C(=O)c2cc(NS(=O)(=O)c3ccc(Cl)cc3)ccc2O[C@@H](C)CCCCO[C@@H]1CN(C)Cc1ccccc1
-12.0,-16.6[16.7 µM],CC(C)C#Cc1ccc2c(c1)O[C@@H](CN(C)Cc1cncnc1)[C@@H](C)CN([C@@H](C)CO)S2(=O)=O
-4.8,18.0[16.7 µM],C[C@H]1CCCCO[C@@H](CN(C)CC2CCCCC2)[C@@H](C)CN([C@@H](C)CO)C(=O)c2cc(NC(=O)C3CCCCC3)ccc2O1
-0.6,0.0[16.7 µM],COc1cccc(CNC(=O)C[C@H]2C=C[C@H](NC(=O)C3CC3)[C@H](CO)O2)c1
5.1,36.5[16.7 µM],C[C@H](CO)N1C[C@H](C)[C@H](CN(C)Cc2ccc3c(c2)OCO3)Oc2ccc(NC(=O)Nc3ccc4c(c3)OCO4)cc2C1=O
4.7,25.9[16.7 µM],COc1ccc(S(=O)(=O)N(C)C[C@H]2OCCCC[C@H](C)Oc3ccc(NS(C)(=O)=O)cc3C(=O)N([C@H](C)CO)C[C@@H]2C)cc1
-7.7,4.7[16.7 µM],O=C(C[C@H]1C[C@H]2c3cc(NC(=O)NC4CCCCC4)ccc3O[C@H]2[C@H](CO)O1)NCc1ccccn1
-2.5,-26.1[16.7 µM],C[C@H]1CN([C@@H](C)CO)C(=O)Cc2cc(NC(=O)CCC(F)(F)F)ccc2O[C@@H]1CN(C)Cc1ccc2c(c1)OCO2
-12.2,-10.7[16.7 µM],COCC#Cc1ccc2c(c1)O[C@@H](CN(C)Cc1ccncc1)[C@@H](C)CN([C@@H](C)CO)S2(=O)=O
-1.2,-2.2[16.7 µM],O=C(C[C@@H]1C=C[C@H](NC(=O)CN2CCOCC2)[C@@H](CO)O1)NC1CCCCC1
6.6,-7.2[16.7 µM],Cc1noc(C)c1NC(=O)Nc1cccc2c1O[C@@H](CN(C)Cc1ccc(Oc3ccccc3)cc1)[C@H](C)CN([C@H](C)CO)C2=O
-5.9,-1.2[16.7 µM],C[C@H]1CN([C@@H](C)CO)S(=O)(=O)c2ccc(-c3cncnc3)cc2O[C@@H]1CN(C)Cc1cccnc1
-9.5,-11.7[16.7 µM],Cc1noc(C)c1NC(=O)N(C)C[C@@H]1Oc2ccc(NC(=O)c3ccncc3)cc2CC(=O)N([C@@H](C)CO)C[C@@H]1C
1.8,34.2[16.7 µM],C[C@H](CO)N1C[C@H](C)[C@H](CN(C)Cc2ccncc2)Oc2cc(Br)ccc2S1(=O)=O
-5.0,-16.7[16.7 µM],COc1ccc(NC(=O)N(C)C[C@@H]2Oc3ccc(NS(=O)(=O)c4ccc(Cl)cc4)cc3C(=O)N([C@H](C)CO)C[C@H]2C)cc1
8.2,4.2[16.7 µM],C[C@@H]1CN([C@H](C)CO)S(=O)(=O)c2ccc(C#CC3CCCC3)cc2O[C@@H]1CN(C)C(=O)C1CC1
-13.5,-11.9[16.7 µM],COc1ccc(NC(=O)N2C[C@H](O)COC[C@H]3O[C@H](CC(=O)N4CCCCC4)CC[C@@H]32)cc1

More records follow:
Yeast UUG start,HIV Env fusion,Molecule
-23.5,-5.9[16.7 µM],O=C(N[C@@H]1CC[C@H](CCn2cc(-c3ccccn3)nn2)O[C@H]1CO)c1ccc(F)cc1
-6.5,-34.2[16.7 µM],C[C@H]1CCCCO[C@H](CN(C)S(=O)(=O)c2cn(C)cn2)[C@@H](C)CN([C@@H](C)CO)C(=O)c2cc(NS(=O)(=O)c3ccc(Cl)cc3)ccc2O1
18.4,-18.5[16.7 µM],COc1ccc(CN(C)C[C@@H]2OCCCC[C@@H](C)Oc3ccc(NC(=O)Nc4ccc(OC)cc4)cc3C(=O)N([C@@H](C)CO)C[C@@H]2C)cc1
-3.8,-15.5[16.7 µM],C/C=C/c1ccc2c(c1)O[C@@H](CN(C)C(=O)CN(C)C)[C@@H](C)CN([C@H](C)CO)S2(=O)=O
5.2,27.5[16.7 µM],C[C@@H]1CN([C@H](C)CO)S(=O)(=O)c2ccc(C3=CCCC3)cc2O[C@@H]1CN(C)Cc1ccncc1
-8.5,14.1[16.7 µM],O=C(C[C@H]1CC[C@@H]2[C@H](COC[C@@H](O)CN2Cc2nccs2)O1)N1CCC(Cc2ccccc2)CC1
-2.0,-10.6[16.7 µM],Cc1ccccc1S(=O)(=O)NCC[C@H]1CC[C@@H](NC(=O)C2CCOCC2)[C@H](CO)O1
1.7,-38.2[16.7 µM],C[C@H]1CN([C@@H](C)CO)C(=O)Cc2cc(NC(=O)C3CCCCC3)ccc2O[C@H]1CN(C)Cc1ccc(-c2ccccc2)cc1
-2.0,20.6[16.7 µM],Cc1ccc(S(=O)(=O)NCC[C@H]2CC[C@H](NC(=O)NC(C)C)[C@H](CO)O2)cc1
7.7,4.3[16.7 µM],O=C(C[C@@H]1C[C@H]2c3cc(NC(=O)c4cccnc4)ccc3O[C@H]2[C@H](CO)O1)NCC1CC1
-6.6,-129.3[16.7 µM],C[C@@H]1CN([C@H](C)CO)C(=O)c2cc(NS(=O)(=O)c3ccc(F)cc3)ccc2O[C@@H](C)CCCCO[C@H]1CN(C)C(=O)Nc1ccc(F)cc1
-9.9,8.0[16.7 µM],CN(C)C(=O)C[C@H]1CC[C@@H]2[C@H](COC[C@@H](O)CN2Cc2nccs2)O1
0.0,10.9[16.7 µM],C[C@H]1CN([C@@H](C)CO)C(=O)c2cc(C#CC3(O)CCCC3)cnc2O[C@H]1CN(C)C(=O)C1CCCCC1
4.5,-10.6[16.7 µM],CCCNC(=O)N(C)C[C@H]1Oc2cc(C#Cc3ccccn3)ccc2S(=O)(=O)N([C@@H](C)CO)C[C@H]1C
19.2,10.5[16.7 µM],Cc1noc(C)c1NC(=O)Nc1ccc2c(c1)CC(=O)N([C@H](C)CO)C[C@H](C)[C@H](CN(C)S(=O)(=O)c1ccc(Cl)cc1)O2
7.4,12.2[16.7 µM],C[C@H]1CN([C@@H](C)CO)C(=O)c2cc(C#CC3(O)CCCC3)cnc2O[C@H]1CN(C)C(=O)CN(C)C
-2.6,-12.3[16.7 µM],C[C@@H]1CN([C@H](C)CO)C(=O)Cc2cc(NC(=O)NC3CCCCC3)ccc2O[C@@H]1CN(C)C(=O)Nc1cccc2ccccc12
-0.8,-121.0[16.7 µM],C[C@@H]1CN([C@@H](C)CO)S(=O)(=O)c2ccc(C#Cc3ccccc3)cc2O[C@@H]1CN(C)C(=O)c1ccccn1
4.2,0.3[16.7 µM],Cc1noc(C)c1S(=O)(=O)Nc1ccc2c(c1)CC(=O)N([C@H](C)CO)C[C@@H](C)[C@@H](CN(C)C(=O)Nc1cccc3ccccc13)O2

HIV Env fusion: hit marks shown above.
Yeast UUG start,HIV Env fusion,Molecule
8.8,65.2*[16.7 µM],C[C@@H]1CN([C@H](C)CO)C(=O)c2cc(NS(=O)(=O)c3ccc(Cl)cc3)ccc2O[C@@H](C)CCCCO[C@@H]1CN(C)Cc1ccccc1

Compound profiles (already shown). Screens in order: Yeast UUG start	HIV Env fusion
Profile of C[C@@H]1CN([C@H](C)CO)C(=O)c2cccc(NC(=O)Nc3ccccc3)c2O[C@@H]1CN(C)S(=O)(=O)c1ccccc1 → 9.0	-8.3[16.7 µM]
Profile of C[C@H]1CCCCO[C@H](CN(C)S(=O)(=O)c2cn(C)cn2)[C@@H](C)CN([C@@H](C)CO)C(=O)c2cc(NS(=O)(=O)c3ccc(Cl)cc3)ccc2O1 → -6.5	-34.2[16.7 µM]
Profile of C[C@H](CO)N1C[C@H](C)[C@H](CN(C)S(C)(=O)=O)Oc2ncc(C#CCN(C)C)cc2C1=O → 20.5&0.4	9.0&-13.5[16.7 µM]
Profile of C[C@H](CO)N1C[C@H](C)[C@H](CN(C)Cc2ccc3c(c2)OCO3)Oc2ccc(NC(=O)Nc3ccc4c(c3)OCO4)cc2C1=O → 5.1	36.5[16.7 µM]
Profile of C[C@@H]1CN([C@H](C)CO)C(=O)Cc2cc(NC(=O)NC3CCCCC3)ccc2O[C@@H]1CN(C)C(=O)Nc1cccc2ccccc12 → -2.6	-12.3[16.7 µM]

These rows are one share of the data (hit frequency here may not be typical).
